eIF4H inh: inhibitors of RNA binding by human eIF4H. Q15056. eIF4H fluorescence polarization binding assay. inhibition, % at 35 µM. 290,000 compounds, 0.94% hits;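 active = 50% or more with normal probe brightness, or confirmed in later tests; about a fifth of its hits are not listed in these tables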;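 also: calls also rest on retests at 20 µM and on dose response follow-up; 0% = protein and probe with vehicle and 100% = probe without protein; strong numbers were not always called active; many hits fall short of the cut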
HIV Env fusion: HIV envelope-mediated fusion inhibition; HeLa-JRFL Env/CEM21 cell fusion, luciferase; inhibition, % at 12.3 µM; 360,000 compounds, 1.1% hits; AID 651610;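 active = mean replicate inhibition score of at least 50 and every replicate individually at or above 50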;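 also: 0% = plate neutral controls and 100% = maraviroc near 300 nM; one replicate is shown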
Rce1 inh: yeast Ras-converting enzyme inhibition | Q03530 | yeast membranes, quenched prenylated peptide cleavage fluorescence | calls only | 290,000 compounds, 0.27% hits | AID 2563;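 active = fall in fluorescence gain of 50% or more versus controls, with final raw signal at or below 3038400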;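 also: plate controls were neutral control wells for no effect and wells lacking membranes for full effect; tested at 10 µM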
Target sequence (Q03530 whole entry, looked up): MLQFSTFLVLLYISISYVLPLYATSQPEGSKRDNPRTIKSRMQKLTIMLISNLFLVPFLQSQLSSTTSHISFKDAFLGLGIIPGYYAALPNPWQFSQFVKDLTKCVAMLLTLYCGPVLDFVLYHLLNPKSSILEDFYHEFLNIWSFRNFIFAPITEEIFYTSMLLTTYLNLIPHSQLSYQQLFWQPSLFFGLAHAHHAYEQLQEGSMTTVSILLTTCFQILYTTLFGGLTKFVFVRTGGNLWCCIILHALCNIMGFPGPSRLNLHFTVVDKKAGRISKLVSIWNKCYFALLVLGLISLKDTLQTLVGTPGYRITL
MT1-MMP act inh: MT1-MMP (human) activation inhibition; HT1080 RFP-PRO-GFP cells, GFP/RFP ratio fluorescence, overnight; percent of plate control window, DMSO zero; GFP/RFP ratio change, % at 20 µM; 360,000 compounds, 0.061% hits; AID 651647;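 active = GFP/RFP ratio change of at least 30% with cell ATP level not reduced by more than half and red fluorescence within 50% of control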; also: strong numbers were not always called active
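Assay system – RFP-PRO-GFP reporter HT1080 cells · Compound dosing – single dose of 20 µM compound, 1% DMSO final · Incubation – overnight compound exposure at 37 °C · Measure – GFP/RFP fluorescence ratio · Benchmarks – DMSO wells and RFP-L50D-GFP cells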
CSC inhib: cancer stem cell inhibition | cancer stem cell-like cells viability, luminescence | inhibition, % at 7.5 µM | 300,000 compounds, 1.1% hits | AID 2717;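 active = mean at 75% or more and at least half the replicates too; tested in HMLE shEcad cells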;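 also: 0% = median of negative and 100% = median of positive control wells; the first replicate is given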
PABP FP inh: PABP-poly(A) binding inhibition; AID 2014; inhibition, % at 35 µM; 290,000 compounds, 1% hits; P11940; PABP-poly(A) RNA binding, fluorescence polarization;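 active = 50% or more with normal probe brightness, or confirmed in later tests; about a fifth of its hits are not listed in these tables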;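 also: calls also rest on retests at 20 µM and on dose response follow-up; controls were probe without protein and protein plus probe with vehicle; some compounds called inactive have numbers as strong as hits; many hits fall short of the cut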
Target sequence (P11940 whole entry, looked up): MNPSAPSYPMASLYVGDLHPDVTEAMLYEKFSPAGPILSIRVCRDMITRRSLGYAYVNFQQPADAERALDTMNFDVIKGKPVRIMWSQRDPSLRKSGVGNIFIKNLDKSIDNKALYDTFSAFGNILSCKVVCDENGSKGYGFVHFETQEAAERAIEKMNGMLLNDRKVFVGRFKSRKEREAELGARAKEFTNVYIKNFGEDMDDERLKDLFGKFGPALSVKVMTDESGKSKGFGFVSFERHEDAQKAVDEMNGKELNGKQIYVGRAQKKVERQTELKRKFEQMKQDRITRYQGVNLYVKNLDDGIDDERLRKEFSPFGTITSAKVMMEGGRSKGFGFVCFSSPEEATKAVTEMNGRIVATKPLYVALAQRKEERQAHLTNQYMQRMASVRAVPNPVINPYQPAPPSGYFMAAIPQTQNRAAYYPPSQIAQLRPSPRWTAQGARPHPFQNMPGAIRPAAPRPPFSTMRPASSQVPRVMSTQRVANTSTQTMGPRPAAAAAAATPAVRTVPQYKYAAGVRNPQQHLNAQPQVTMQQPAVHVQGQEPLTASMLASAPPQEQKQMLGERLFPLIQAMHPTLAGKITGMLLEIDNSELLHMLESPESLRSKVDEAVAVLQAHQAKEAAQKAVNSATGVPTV
UUG fidelity: alters start codon recognition fidelity in yeast; activity score, % at 18.7 µM; AID 602363; 350,000 compounds, 0.13% hits; S. cerevisiae UUG-firefly luciferase reporter, luminescence/redox ratio;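 active = replicate mean at a twofold rise or more, about +100% in these data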;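 also: firefly luciferase made from a UUG start codon reports start codon fidelity; reporter light over untreated wells divided by growth signal over untreated wells; some hits fall short of that in this replicate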
eIF4H inh retest: second read-out of eIF4H inh, no call of its own (marks repeat the call); inhibition, %; compound at 20 µM; confirmation average;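 mean of two retest wells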
PABP FP inh retest: also measured in PABP FP inh; calls as there; inhibition, %; compound at 20 µM; confirmation repeats;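 mean of two retest wells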
MT1-MMP act inh RFP: also measured in MT1-MMP act inh; calls as there; RFP signal change, %; measured here: RFP expression control read;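 0 = vehicle wells; hits needed this value within 50% of zero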
* = called active by the depositor; i = inactive; . = not tested or not shown; & = joins results of further samples.

SMILES | eIF4H inh | HIV Env fusion | Rce1 inh | MT1-MMP act inh | MT1-MMP act inh RFP | CSC inhib | PABP FP inh | UUG fidelity | others
O=C(CSc1nc2ccccc2c(=O)n1CCC(=O)N1CCN(c2ccccc2)CC1)NCC1CCCO1 (stereo unspecified) | 4 | 15 | i | 7 | 4 | -17 | 4 | .
Cn1c(SCC(=O)NC2CCCCC2)nnc1C(F)(F)F | . | 20 | . | 1 | 4 | . | . | -16
Cc1ccc2c(c1)C(=O)c1c(C(=O)O)cccc1-2 | 2 | -4 | i | 1 | 2 | -10 | 0 | .
O=C1NC(=O)/C(=C/c2ccc(N3CCOCC3)o2)N1 | 10 | -7 | i | -4 | 1 | 59 | 43 | .
COc1ccc(OCCOC(=O)Nc2ccccc2)cc1 | -4 | -1 | i | 3 | 0 | . | 1 | -19
CCCCN(C(=O)c1ccccc1OCc1ccc(F)cc1)c1c(N)n(CC(C)C)c(=O)[nH]c1=O | -1 | -14 | i | -4 | -1 | -14 | 5 | 5
COCCNCc1ccc(C(C)C)cc1 | 1 | 4 | i | -1 | 4 | -16 | 0 | .
C[C@H](NC(=O)c1[nH]cnc1C(=O)Nc1cccc(Cl)c1)c1ccccc1 | . | -21 | . | 9 | 3 | 16 | . | -17
Cc1ccc(OS(=O)(=O)c2ccc(-c3csc(C)n3)s2)c(C)c1 | -7 | 6 | i | 1 | -9 | 60 | 2 | .
C=CCN1C(=O)NC(c2ccccc2)(C(F)(F)F)S/C1=C(\C#N)c1nnc(N2CCOCC2)n1-c1ccccc1 (stereo unspecified) | -3 | 6 | . | -5 | -9 | 17 | -14 | .
O=S(=O)(NCc1ccccc1Br)c1cccs1 | -2 | . | i | -2 | -1 | -4 | 14 | .
C[C@H](CO)N1C[C@H](C)[C@@H](CN(C)S(=O)(=O)c2ccccc2)OCc2cn(nn2)CCCC1=O | . | -38 | . | 0 | 6 | . | . | -5&5
O=C(NC(N1CCOCC1)C(Cl)(Cl)Cl)c1ccc(Br)cc1 (stereo unspecified) | -5 | 18 | i | 2 | 10 | -7 | -9 | .
CC(=O)c1cccc(Nc2cc(C)nc3c(C)cc(C)cc23)c1 | 2 | -32 | i | -2 | -2 | 1 | -8 | .
CCN(C(=O)C1CCN(S(=O)(=O)c2cccc3nonc23)CC1)c1ccccc1 | -8 | -8 | i | -2 | 4 | -3 | 2 | -8
CSc1nc(N2CCOCC2)c2c3c(sc2n1)CCCC3 | 5 | . | i | -6 | -4 | 8 | -10 | -11
COC(=O)c1ccc(CN2CCc3ccccc32)cc1 | -12 | -3 | i | 0 | 0 | -10 | 11 | -19
COc1ccc(CC(=O)O/N=C(\N)Cc2cccc3ccccc23)cc1OC | 16 | 2 | i | -7 | 0 | 11 | -2 | .
Cc1ccc(N(Cc2cc3ccccc3[nH]c2=O)S(=O)(=O)c2ccccc2)cc1 | -4 | -43 | i | 0 | 2 | -1 | -6 | .
CN(C(=O)CN(CCO)CC(=O)N(C)C(C)(C)Cc1ccccc1)C(C)(C)Cc1ccccc1 | . | 22 | . | -8 | -14 | 20 | . | -13
CC(C)(Oc1ccc(Cl)cc1)C(=O)OCC(=O)NCCc1ccccc1 | -9 | . | i | 0 | 2 | -35 | 4 | -23
Cn1cccc1C(=O)Nc1ccc(N2CCOCC2)cc1 | . | . | . | -1 | 1 | 15 | . | -53
Cc1cc(O)ccc1N/C=C/c1onc(C)c1[N+](=O)[O-] | -7 | -20 | i | 13 | 2 | 1 | -7 | .
CN(C)c1cccc(C(=O)Nc2ccc3nc4n(c(=O)c3c2)CCCCC4)c1 | -6 | 13 | i | 4 | 0 | 8 | -5 | 34
COc1ccc(C2=CC(=O)OC(C)(c3ccccc3)O2)cc1 (stereo unspecified) | -5 | 9 | i | 1 | 4 | 16 | -5 | .

Next part:
SMILES | eIF4H inh | HIV Env fusion | Rce1 inh | MT1-MMP act inh | MT1-MMP act inh RFP | CSC inhib | PABP FP inh | UUG fidelity | others
CN(C)CCCNc1cc(C(C)(C)C)nc2c(-c3ccc(Cl)cc3)cnn12 | 12 | -24 | i | -7 | -7 | 107* | 19 | -24
O=C(Cc1ccccc1)Nc1ccc(C(=O)O)cc1 | -3 | . | i | 7 | 7 | -14 | 8 | -18
CCOC(=O)N1CCN(C(=O)c2ccc(N(Cc3ccc(C)cc3)S(C)(=O)=O)cc2)CC1 | -2 | -87 | i | -2 | -3 | -3 | 3 | 16
COC(=O)c1ccc(OS(=O)(=O)N(C)C)cc1 | 0 | -21 | i | 5 | 8 | -6 | 0 | -36
Nc1nnnn1/N=C/c1cccc(Oc2ccccc2)c1 | -1 | -9 | i | 3 | -5 | -13 | 3 | -20
C/C(CC(=O)Nc1cccc2c1CCCC2)=N\NC(=O)c1ccccc1N | -8 | -18 | i | 2 | -1 | -5 | -6 | -1
CCOC(=O)CN1C(=O)NC(C)(c2ccc(OC(F)F)cc2)C1=O (stereo unspecified) | 1 | 2 | i | -4 | -6 | -2 | 6 | 6
Cc1cccc(CN2CCN(Cc3ccc(-n4cccn4)cc3)CC2CCO)n1 (stereo unspecified) | -2 | 9 | i | 4 | 5 | -18 | -5 | .
O=c1cc(N2CCOCC2)[nH]c(=O)n1Cc1ccc(F)cc1 | -5 | -28 | i | -10 | 4 | -8 | 12 | 6
CSc1c(CC(=O)Nc2ccccc2C(F)(F)F)n(Cc2ccccc2)c2ccccc12 | -8 | 26 | i | -9 | -8 | 6 | -7 | 8
CCC(=O)c1c[nH]c(C(=O)N2CCN(c3ccccc3)CC2)c1 | -15 | 9 | i | 0 | -1 | -4 | 1 | .
COc1ccc(S(=O)(=O)N2CCN(C(=S)NCC3CCCO3)CC2)cc1OC (stereo unspecified) | 0 | 3 | i | 2 | -1 | -18 | 0 | -13
c1ccc2sc(-c3ccncc3)nc2c1 | -4 | -18 | i | 2 | 2 | -4 | 7 | .
CCCCCCCNC(=O)c1ccc(N2CCC3(CC2)OCCO3)c([N+](=O)[O-])c1 | -6 | 13 | i | -2 | -10 | 34 | 6 | .
CCOC(=O)c1c(NC(=O)CSc2nnc(N)s2)sc(C)c1-c1ccc(C)cc1 | -2 | 27 | i | 2 | -11 | 27 | 0 | -30
COc1cccc(C(C)(O)c2nc(-c3cccs3)cs2)c1 (stereo unspecified) | . | 1 | . | 1 | -11 | . | . | -1
CC(C)(C)NC(=O)CN1CCC(NC(=O)C23CC4CC(CC(C4)C2)C3)CC1 | 4 | 2 | i | 2 | -2 | 20 | -7 | .
CCCOc1cccc(-c2nnc(N)s2)c1 | -15 | -415 | i | 0 | 3 | 14 | 9 | -25
CCOC(=O)Nc1ccc(OC)c([N+](=O)[O-])c1 | -8 | 8 | i | -2 | -1 | -10 | -1 | -17
CC(OC(=O)c1cccc(-n2cnnn2)c1)C(=O)Nc1cccc(Cl)c1 (stereo unspecified) | . | -2 | i | -4 | -21 | 8 | . | 10
Cc1ccc(NC(=O)CCn2cnc3ccccc3c2=O)c(C)c1 | -2 | -24 | i | -2 | 0 | -1 | -4 | .
COc1ccc(/C=C2\NC(=S)N(CC3CCCO3)C2=O)c(OC)c1 (stereo unspecified) | -8 | -25 | i | -1 | -3 | -8 | -5 | -13
COCc1c(C(=O)OCC(=O)Nc2ccc(OC(F)F)cc2)oc2ccccc12 | . | 4 | . | -3 | -5 | . | . | -20
OCCNC(=S)Nc1ccc(Cl)c(Cl)c1 | -5 | . | i | 5 | 4 | . | -8 | -14
O=C(/C=C/c1ccc2ccccc2n1)c1cc(Cl)ccc1O | 67 | -29 | i | -48 | -1 | 18 | 51* | -19 | eIF4H inh retest=3;PABP FP inh retest=51*

Next section
SMILES | eIF4H inh | HIV Env fusion | Rce1 inh | MT1-MMP act inh | MT1-MMP act inh RFP | CSC inhib | PABP FP inh | UUG fidelity | others
COCCn1c(C)cc(C(=O)CSc2nc3nc(C)cc(C)n3n2)c1C | 43 | 6 | i | 5 | 5 | 6 | 10 | -14
CN(C)c1ccc(-c2nc3ccccn3c2/N=C/c2ccc(Br)cc2)cc1 | 24 | -12 | i | 0 | 1 | 2 | 9 | .
CC1CCC(NC(=O)Cn2ncc3ccccc32)CC1 (stereo unspecified) | -3 | -28 | i | -3 | 2 | 1 | -4 | -17
Cc1cc(Cl)ccc1OC(C)C(=O)N1CCCN(C(=O)C(C)Oc2ccc(Cl)cc2C)CC1 (stereo unspecified) | 2 | . | i | -13 | -30 | . | 1 | -6
c1ccc2c(N3CCCC3)nc(-c3ccncc3)nc2c1 | 1 | . | i | -2 | -6 | 0 | -7 | .
CCC(C)NC(=O)CO/N=C/c1ccc(C(=O)OC)cc1 (stereo unspecified) | -3 | 12 | i | 7 | 6 | -16 | 8 | 4
COc1ccc(/C=C2\SC(=O)N(CC(=O)NN3CCN(C)CC3)C2=O)cc1OC | 0 | -3 | i | 13 | 6 | -11 | -13 | 5
COC(=O)/C=C/c1ccsc1NC(C)=O | 7 | -7 | i | 2 | 7 | -16 | 5 | .
COc1ccc(/C=C/c2c([N+](=O)[O-])c(=O)n(C)c(=O)n2C)cc1O | 9 | 14 | i | -1 | -11 | -3 | -5 | -9
O=C(CSc1nccn1-c1ccccc1)Nc1ccc2c(c1)OCO2 | 1 | . | i | 1 | -1 | 8 | -1 | -15
Cc1ccccc1C(=O)Nc1nc(SCc2ccc(Cl)cc2)n[nH]1 | -6 | 13 | i | 4 | 3 | 7 | -2 | -20
COCC(=O)Nc1nnc(SCC(=O)N2C(C)CCCC2C)s1 (stereo unspecified) | -13 | 8 | i | 2 | 5 | 0 | -15 | 3
COc1ccccc1N(CC(=O)NCCc1ccccc1)C(=O)CCC(=O)Nc1ccccn1 | -5 | -4 | i | -1 | 1 | -22 | 0 | -8
CCN(C(=O)CSc1cc(-c2ccccc2)c2ccc(OC)cc2n1)C1CCS(=O)(=O)C1 (stereo unspecified) | -4 | 23 | i | -3 | -4 | 21 | -15 | .
O=C(NC1CC1)[C@@H]1CSC2c3ccccc3C(=O)N21 (stereo partly specified) | -14 | -3 | i | -4 | 5 | -5 | -8 | -10
COc1ccccc1C(=O)Nc1cccc(S(=O)(=O)N2CCCC2)c1 | -1 | 12 | i | -2 | -2 | -4 | -13 | 4
O=Cc1c(C(=O)O)n(CC(=O)O)c2ccccc12 | -4 | 27 | i | 0 | 4 | -14 | -1 | -5
CCCCCOC(=O)Nc1nnc(CCC)s1 | -3 | -41 | i | -1 | 5 | -4 | -2 | -14
COc1ccccc1-c1cc(NC(C)=O)c2ncc(-c3ccc(F)cc3)n2c1 | . | 14 | . | -7 | -10 | . | . | -14
CC(C)NS(=O)(=O)c1ccc(N2C(=O)c3ccccc3C2=O)cc1 | 13 | . | i | 3 | 5 | 1 | 17 | -8
O=C(Nc1cccnc1Oc1ncnc2cc(Cl)ccc12)c1ccc(F)cc1 | 3 | . | i | . | . | 0 | -8 | .

Structures above containing an NH in an aromatic ring (six):
SMILES | eIF4H inh | HIV Env fusion | Rce1 inh | MT1-MMP act inh | MT1-MMP act inh RFP | CSC inhib | PABP FP inh | UUG fidelity | others
CCCCN(C(=O)c1ccccc1OCc1ccc(F)cc1)c1c(N)n(CC(C)C)c(=O)[nH]c1=O | -1 | -14 | i | -4 | -1 | -14 | 5 | 5
C[C@H](NC(=O)c1[nH]cnc1C(=O)Nc1cccc(Cl)c1)c1ccccc1 | . | -21 | . | 9 | 3 | 16 | . | -17
Cc1ccc(N(Cc2cc3ccccc3[nH]c2=O)S(=O)(=O)c2ccccc2)cc1 | -4 | -43 | i | 0 | 2 | -1 | -6 | .
O=c1cc(N2CCOCC2)[nH]c(=O)n1Cc1ccc(F)cc1 | -5 | -28 | i | -10 | 4 | -8 | 12 | 6
CCC(=O)c1c[nH]c(C(=O)N2CCN(c3ccccc3)CC2)c1 | -15 | 9 | i | 0 | -1 | -4 | 1 | .
Cc1ccccc1C(=O)Nc1nc(SCc2ccc(Cl)cc2)n[nH]1 | -6 | 13 | i | 4 | 3 | 7 | -2 | -20

Bioassay records (PubChem)
